VDR inh: inhibitors of human vitamin D receptor; P11473; VDR-SRC2-3 peptide fluorescence polarization, 2 h; Potency, µM, for the others: max response, negative = inhibition, most hits filed as inhibitors; hit rate 0.93% among 400,000; active = well fitted inhibition curve with a large enough effect; inconclusive = small, poorly fitted or top-dose-only effect, or another doubt; inactive = no such curve, though single readings can be large or run the other way; also: series mostly up to about 120 µM
Target sequence (P11473 whole entry, looked up): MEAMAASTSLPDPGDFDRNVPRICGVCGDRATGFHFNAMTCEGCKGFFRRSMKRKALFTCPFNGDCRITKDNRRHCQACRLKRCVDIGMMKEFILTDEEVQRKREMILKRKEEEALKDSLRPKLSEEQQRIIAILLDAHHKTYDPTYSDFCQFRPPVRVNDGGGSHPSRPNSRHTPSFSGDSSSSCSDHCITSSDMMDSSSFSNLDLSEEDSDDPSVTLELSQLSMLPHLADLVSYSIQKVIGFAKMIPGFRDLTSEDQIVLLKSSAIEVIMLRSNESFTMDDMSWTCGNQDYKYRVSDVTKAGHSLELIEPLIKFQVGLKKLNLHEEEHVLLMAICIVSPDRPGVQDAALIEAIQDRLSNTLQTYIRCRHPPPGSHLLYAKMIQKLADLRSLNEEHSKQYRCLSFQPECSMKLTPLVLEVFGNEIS
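Inhibition of the VDR/SRC2-3 peptide interaction is quantified by fluorescence polarization. Compounds (23 nl, pintool) incubate with the reagents for 2 hours at ambient room temperature.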
* = called active by the depositor; ? = inconclusive. % is scaled to controls: 0 for no effect and ±100 for the full control effect; potency is read from the fitted curve at half-maximal effect. Some of the compounds tested; count on the stated rates, not on these rows.

SMILES	VDR inh
COc1ccc(CN(CC2CCC(C(=O)O)CC2)C(=S)Nc2cc(Cl)ccc2OC)cc1 (configuration not stated)	-7%
O=C(CCN1C(=O)C2C3C=CC(C3)C2C1=O)NCc1cccnc1 (configuration not stated)	-3%
Cn1ncc(Cl)c1C(=O)NC(=S)Nc1sc2c(c1C#N)CCCCC2	-8%
CCn1cc(S(=O)(=O)c2ccc(OC)cc2)c(=O)c2cc(OC)ccc21	0%
O=C(O)c1ccccc1C(=O)N1CCN(C(=O)c2ccccc2Cl)CC1	-3%
OC(CNCCc1ccccc1)COc1ccc(OCC(O)CNCCc2ccccc2)cc1 (configuration not stated)	5%
Cc1cc(=O)n2c(C(=O)Nc3ccc(F)c(Cl)c3)c(C(=O)Nc3cccc(C)c3C)sc2n1	-12%
CCN1C(=O)[C@H]2[C@H]3CN=C(SC)N3[C@@](C)(C(=O)OC)[C@H]2C1=O	13%
CC1CCc2nc3ccc(S(=O)(=O)N4CCC(C(=O)NC5CCCC5)CC4)cc3c(C(=O)O)c2C1 (configuration not stated)	0%
Cc1ccc2cc(CN(CC3CCCO3)C(=O)Nc3ccccc3F)c3nnnn3c2c1 (configuration not stated)	6%
CCCCOC(=O)n1c(SCC(=O)N(C)C)nc2ccccc21	10%
CSc1sc(C(=O)NCC2CC2)c2c1S(=O)(=O)N(C)c1ccccc1-2	6%
O=C(NC1CCCN(Cc2ccc(Cl)cc2)C1)c1ccccc1C(F)(F)F (configuration not stated)	12%
CC(=O)c1ccc(NC(=O)CCS(=O)(=O)c2ccc3c(c2)n(C)c(=O)c(=O)n3C)cc1	0%
Cc1cccc2sc(N(CCCN(C)C)C(=O)c3nc4ccccc4s3)nc12	-7%
Cc1ccc(NC2CCCN(C(=O)c3ccoc3)C2)cc1C (configuration not stated)	15%
Cc1ccc(S(=O)(=O)Cc2nc(-c3ccc(C(=O)NCc4ccccc4)cc3)oc2C)cc1	12%
CC(CC(=O)Nc1cccc(F)c1)S(=O)(=O)c1ccc2c(c1)NC(=O)CO2 (configuration not stated)	11%
NC(=O)c1nn(CC(=O)Nc2cccc(S(=O)(=O)N3CCCCCC3)c2)c(=O)c2ccccc12	9%
COc1ccc(CN2CCNC(=O)C2CC(=O)N(C)CCC2CCOCC2)cc1OC (configuration not stated)	-4%
Cc1cc(NC(=O)CCC(=O)N(C2CC2)C(C(=O)NC(C)(C)C)c2ccccc2Cl)no1 (configuration not stated)	-2%
COc1ccccc1C1=NOC(Cn2c(NCC3CCCO3)nc3c2c(=O)n(C)c(=O)n3C)C1 (configuration not stated)	11%
Cc1cccc(C(=O)OCC(=O)NC(C)CCc2ccccc2)c1 (configuration not stated)	-15%
COc1cc(C2(O)CCCCC2C)cc(OC)c1OC (configuration not stated)	-13%
COc1ccc(C(=O)NCC(c2cccs2)N2CCOCC2)cc1OC (configuration not stated)	-22%
COCCn1c(SCC(=O)Nc2ccc3c(c2)CCC3)nc2ccccc2c1=O	1%
O=c1c2ccccc2nc(SCc2ccc(F)cc2Cl)n1CCCN1CCOCC1	-15%
CCNC(=O)CC1C(=O)N(c2ccc(C)cc2)C(=O)N1Cc1ccc(C)cc1 (configuration not stated)	-7%
COc1ccc(C(=O)Oc2ccc3c(-c4ccc(OC)cc4)cc(=O)oc3c2)cc1	0%
O=c1c2ccc([N+](=O)[O-])cc2ncn1CCOc1cccc(Br)c1	7%
CC(C)(C)c1cc(C(=O)NNC(=O)Nc2cccc(Cl)c2)n(Cc2ccccc2)n1	8%
CCOC(=O)c1c(NC(C)=O)c2c3c(sc2n1Cc1nc(-c2ccccc2C)oc1C)CCCC3	4%
CN(C)c1nc(-c2ccccn2)nnc1-c1ccccc1	-4%
COC(=O)CSc1cc([N+](=O)[O-])ccc1NC(=O)OC	-26%
COc1cc(Br)ccc1C1CC(=O)C(C)C(c2ccc(Br)cc2OC)N1 (configuration not stated)	13%
N=c1sccn1CC(=O)Nc1ccc(S(N)(=O)=O)cc1	8%
O=C1COc2ccc(C(=O)NCc3ccco3)cc2N1	-1%
Cc1c(Cl)sn(-c2ccc(Cl)cc2)c1=O	45µM*
C=CCOC(=O)N[C@H](c1ccco1)C(C(C)=O)C(C)=O	3%
O=c1[nH]c2ccc(NS(=O)(=O)c3ccc4ccccc4c3)cc2[nH]1	-12%
CCCCn1c(N)c(N(CCOC)C(=O)c2ccc(N(C)S(=O)(=O)c3ccc(C)cc3)cc2)c(=O)[nH]c1=O	-10%
COC(=O)[C@H](Cc1ccccc1)NC(=O)N1CCC(C)CC1	12%
COCC(=O)NC1CC2CCC(C1)N2C(=S)Nc1ccccc1C(=O)OC (configuration not stated)	0%
C=CCn1c(COc2ccc(F)cc2)nnc1SCC(=O)N1CC(=O)Nc2ccccc21	-22%
CCC(O)C1CCN(C(=O)c2cc(COc3ccc4ncccc4c3)on2)CC1 (configuration not stated)	3%
Cc1noc(C)c1CN1C(=O)c2ccccc2C1=O	-4%
CCNC(=O)CSc1ncnc2sccc12	1%
O=C(N/N=C/c1ccncc1)c1cc(-c2ccc(Br)s2)[nH]n1	20%
COC(=O)c1c(C)oc2ccc(N(C(=O)c3ccncc3)S(=O)(=O)c3ccc(C)cc3C)cc12	-4%
C=CCc1cc(C)ccc1OCCOCCC(C(=O)OCC)C(=O)OCC	-12%
CCOC(=O)/C(C#N)=C/Nc1cc(C(C)(C)C)sc1C(C)=O	-5%
O=[N+]([O-])c1ccc(Oc2cccc3cccnc23)c(Cl)c1	-9%
CCCCCCC1NC(C(=O)O)CS1 (configuration not stated)	-3%
Cc1ccc(-c2nnc(N3CCOCC3)c3ccccc23)cc1S(=O)(=O)NCc1cccnc1	9%
O=C(CCc1nc(-c2ccc(Cl)cc2)no1)NCC1CCCO1 (configuration not stated)	9%
CC(C)(C)C(=O)COC(=O)c1c2c(nc3ccccc13)CCC2	-3%
Cc1ccc(CN(C)C(=O)COc2ccc(S(=O)(=O)N3CCCC3)cc2[N+](=O)[O-])c(C)c1	-19%
CCC(C)(C)NC(=O)CCn1c(-c2ccccc2)cc(C(C)=O)c1C	3%
O=C(CC(n1cncn1)C(Cl)(Cl)Cl)c1ccc([N+](=O)[O-])cc1 (configuration not stated)	?
Cc1cccc(NC(=O)NNC(=O)c2ccc3ccccc3c2)c1	-15%
Continued:
SMILES	VDR inh
CCC(C)(C)NC(=O)C1CCC(CNS(=O)(=O)c2ccc3c(c2)CC(C)N3C(C)=O)CC1 (configuration not stated)	-6%
CCOC(=O)c1[nH]c2c(c1-c1ccccc1)C(=O)CC(c1ccccc1)C2 (configuration not stated)	-14%
COc1cc(OC)c(C(=O)N2CCN(c3ccccn3)CC2)cc1OC	1%
CCN(CC)S(=O)(=O)c1ccc2[nH]cc(C(=O)NCCCN3CCCCC3)c(=O)c2c1	-14%
Cc1cc(SCC(=O)Nc2cccc(S(=O)(=O)NC3=NCCCCC3)c2)c(C)cc1Br	4%
COc1cccc(C(=O)N(c2ccccc2)C2C=CS(=O)(=O)C2)c1 (configuration not stated)	4%
C[C@@]12C(=O)Nc3ccc(F)cc3C(=O)N1[C@H]1c3cc(Br)ccc3OC[C@@H]1[C@@H]2c1ccccc1	-23%
CC(CN(C)C)CN1c2ccccc2Sc2ccc(C(F)(F)F)cc21 (configuration not stated)	10%
O=C(CSc1nnc(-c2cccc(F)c2)c(-c2cccc(F)c2)n1)NC1CCCCC1	15%
COC(=O)c1ccc2c(c1)C(=O)/C(=C/c1ccc(O)cc1)O2	1%
O=C1O/C(=C/c2ccccc2)c2ccccc21	4%
CCOc1ccc2nc(NCCNC(=O)Nc3cccc(C)c3)c(C#N)cc2c1	-18%
Cc1c(CCO)c(=O)[nH]n1S(=O)(=O)c1cccc(C(F)(F)F)c1	-7%
COc1ccc(NC(=O)CS(=O)c2cccc(C(F)(F)F)c2)cc1 (configuration not stated)	10%
COC(=O)C(C)NC(=O)N1CCN(c2nnc(C)c3c(C)n(-c4ccc(Cl)cc4)nc23)CC1 (configuration not stated)	9%
Nc1nnc(CCS(=O)(=O)c2cc(Cl)ccc2Cl)s1	4%
CCCCOc1cccc(OCCCC)c1C(=O)Nc1cc(C)on1	-3%
CC1(C)CC(NC(=O)CCC2CCCC2)CC(C)(C)N1	-2%
CCCCCCCCCCCCCCCC(=O)NC(C)C(=O)O (configuration not stated)	-5%
CC1=C(C(=O)N2CCCCCC2)C2(CCC(C)CC2)OC1=O (configuration not stated)	-3%
COc1ccc(N2CCN(C(=S)Nc3ccc(OC)cc3OC)CC2)cc1	-3%
COc1cc2c(cc1OC)C(C)N(C(=O)c1cc3n(n1)C(C(F)(F)F)CC(c1ccco1)N3)CC2 (configuration not stated)	9%
COc1ccccc1N(CC(=O)NCc1ccco1)S(C)(=O)=O	-1%
CCOC(=O)c1c(-c2ccccc2)oc2ccc(OCC(=O)NNC(=O)CCC(=O)O)cc12	-14%
Cc1ccccc1N1C(=O)C2ON(c3ccccc3)C(c3ccncc3)C2C1=O (configuration not stated)	-1%
Cc1cc(C(=O)O)ccc1N=Cc1c(O)ccc2ccccc12	-19%
Cc1ccccc1NC(=O)C1CCN(c2cc(-c3ccccc3)nc3ncnn23)CC1	?
CCOC(=O)c1sc2c(c1C)c(=O)c(C(=O)OCC)cn2CC	13%
CC(=O)/C(=N/Nc1ccccc1)Sc1nnc(CCc2ccccc2)n1-c1ccccc1	-17%
Cc1nc2cc(-c3ccccc3)nn2c(C)c1CCC(=O)NC(C)c1ccc2c(c1)OCCO2 (configuration not stated)	16%
O=C(NCc1ccco1)c1cccc(S(=O)(=O)N2CCc3ccccc32)c1	-3%
COc1ccc(Br)cc1/C=N/NC(=O)c1cc(OC)c(OC)c(OC)c1	-5%
N#C/C(=N\Nc1ccc(Cl)cc1)C(=N)N1CCCCCC1	0%
CN(C)S(=O)(=O)c1cc(NC(=O)COC(=O)c2ccc3c(c2)OCO3)ccc1Cl	-16%
Cc1ccc2c(c1)nnn2C1CCN(CC(=O)NNC(=O)c2ccco2)CC1	0%
Cc1ccc2ncnc(Nc3ccc(C)c(C)c3)c2c1	3%
COC(=O)C1=C(C(=O)OC)[C@@H]2Nc3ccccc3[C@@]23C[C@@H](C(=O)OC)N(C(=O)c2cccs2)C3=N1	9%
C=CCOC(=O)C(C#N)c1nc2ccccc2nc1N1CCN(Cc2ccccc2)CC1 (configuration not stated)	?
COC(C(=O)Nc1ccnn1C1CCN(C(=O)c2cccc(F)c2)CC1)c1ccccc1 (configuration not stated)	0%
COc1ccccc1C(=O)Nc1c(C(=O)N2CCN(c3ccccc3F)CC2)oc2ccccc12	0%
O=C(NCc1ccccn1)C(=O)NCC(c1ccco1)N1CCOCC1 (configuration not stated)	-20%
Cn1nnnc1SCC(=O)Nc1ccc(S(=O)(=O)N2CCOCC2)cc1	3%
COc1ccc2nc(SCC(=O)Nc3cc(C)on3)[nH]c2c1	9%
CCCCCN(C(=O)CCC(=O)OC(C)C(=O)c1ccccc1)c1c(N)n(CCCC)c(=O)[nH]c1=O (configuration not stated)	-14%
CCCCNC(=O)COC(=O)c1ccccc1F	-5%

14 compounds out of the list, ordered by heavy-atom count, largest number first.
SMILES	VDR inh
CCCCCN(C(=O)CCC(=O)OC(C)C(=O)c1ccccc1)c1c(N)n(CCCC)c(=O)[nH]c1=O (configuration not stated)	-14%
COC(=O)C1=C(C(=O)OC)[C@@H]2Nc3ccccc3[C@@]23C[C@@H](C(=O)OC)N(C(=O)c2cccs2)C3=N1	9%
Cc1nc2cc(-c3ccccc3)nn2c(C)c1CCC(=O)NC(C)c1ccc2c(c1)OCCO2 (configuration not stated)	16%
C=CCOC(=O)C(C#N)c1nc2ccccc2nc1N1CCN(Cc2ccccc2)CC1 (configuration not stated)	?
Cc1ccccc1NC(=O)C1CCN(c2cc(-c3ccccc3)nc3ncnn23)CC1	?
CN(C)S(=O)(=O)c1cc(NC(=O)COC(=O)c2ccc3c(c2)OCO3)ccc1Cl	-16%
Cc1ccc2c(c1)nnn2C1CCN(CC(=O)NNC(=O)c2ccco2)CC1	0%
O=C(NCc1ccco1)c1cccc(S(=O)(=O)N2CCc3ccccc32)c1	-3%
COc1ccc(Br)cc1/C=N/NC(=O)c1cc(OC)c(OC)c(OC)c1	-5%
CCOC(=O)c1sc2c(c1C)c(=O)c(C(=O)OCC)cn2CC	13%
COc1ccc2nc(SCC(=O)Nc3cc(C)on3)[nH]c2c1	9%
N#C/C(=N\Nc1ccc(Cl)cc1)C(=N)N1CCCCCC1	0%
Cc1ccc2ncnc(Nc3ccc(C)c(C)c3)c2c1	3%
CCCCNC(=O)COC(=O)c1ccccc1F	-5%

(more compounds)
SMILES	VDR inh
Cn1c(CSc2ncccn2)nnc1SCC(=O)N1CCCc2ccccc21	2%
COc1ccc2c(c1OC)C(=O)OC2Nc1nc(-c2cc3cc(Br)ccc3oc2=O)cs1 (configuration not stated)	-5%
COc1cc(-c2ccc3oc(-c4cccc(C)c4)c(C#CC4(O)CCCCC4)c3c2)cc(OC)c1OC	-18%
COCCCNC(=O)CC1C[C@H](C(=O)N2CCCCC2)[C@@]2(C)c3[nH]c4ccccc4c3CCN2C1=O (some centres not stated)	-2%
CCn1c(C)nc2cc(C(=O)NNS(=O)(=O)c3ccccc3F)ccc21	10%
N#Cc1ccc(NCC(=O)N2CCN(S(=O)(=O)c3ccccc3)CC2)cc1	6%
NC(=O)COc1ccc(NC(=O)OCc2ccccc2)cc1	-3%
C[C@]12C=CC(=O)C=C1CCC1C2CC[C@@]2(C)C1CCC21OCCO1 (some centres not stated)	-6%
CCN1C(=O)N[C@@H](c2ccccc2)[C@H](C(C)=O)[C@H]1C	-5%
CCN(c1ccccc1)S(=O)(=O)c1ccc(C(=O)Nc2cccc(NC(C)=O)c2)cc1	17%
COCCn1c(SCC(=O)Nc2ccc(OC)c(S(N)(=O)=O)c2)nc2ccccc2c1=O	8%
